Bioassay records deposited in PubChem BioAssay by ICCB-Longwood Screening Facility, Harvard Medical School.
AID504770 = growth inhibition of E. coli YBA685, primary screen, V. cholerae RctB inhibitors. E. coli YBA685 rctB-dependent plasmid, OD600 growth, 3 h; active compounds read low. z-score (no concentration beside the values). 130,000 compounds, 0.27% hits. AID 504770, 2011;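 active means z-score under -2 on both plates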;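 further: wells of about 30 µL received 100 nL stock; score is relative to mean and SD of the test wells; the first replicate is given; strong numbers were not always called active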
Ba CapD inh = Bacillus anthracis CapD inhibitors, primary screen, biochemical, fluorescence intensity; CapD gamma-glutamyltranspeptidase (Bacillus anthracis Ames Ancestor); purified CapD enzyme, fluorescence intensity read-out; active compounds read low; some hits fall short of the stated cut; z-score (test concentration not listed); 140,000 compounds, 0.23% hits; AID 492967, 2010;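 active means z-score under -4 in either of two replicates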;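 further: stock transfer was 100 nL into about 40 µL; score is relative to mean and spread of the plate; one replicate is shown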
An asterisk follows results filed as active; i = inactive; . = no result given. This is a random part of the collection; any-hit rate near 0.39%.

SMILES | AID504770 | Ba CapD inh
CC1=CC(=C(C#N)C#N)C=C(C)N1c1cccnc1 | -0.4 | .
CN1CCN(Cc2cc(Cl)c3cccnc3c2O)CC1 | 2.5 | -1
O=S(=O)(c1ccccc1)c1nc(N2CCCc3ccccc32)sc1Cl | 1.5 | -0.17
COC(Cn1c(-c2ccccc2)n[nH]c1=S)OC | -0.95 | 10
CC1(C)CC(=O)C2=C(C1)c1c(ccc3ccccc13)NC2c1ccc(OC(=O)c2ccccc2)cc1 (stereo not given) | . | -0.26
COc1ccc(CN2Cc3ccccc3C2)cc1 | -0.4 | 0.14
Cc1ccc2c(c1)=C(c1sc(=S)n(CC(=O)O)c1O)C(=O)N=2 | -1.1 | -0.48
CC(C)(CC(=O)O)CC(=O)Nn1c(=S)[nH]c2ccccc2c1=O | -0.1 | -0.015
Cc1ccc(N=C(C#N)C2=C(O)c3ccccc3C2=O)c(Cl)c1 | 1.4 | -0.15
CCOC(=O)c1cnc(Sc2ccc(C(F)(F)F)cc2[N+](=O)[O-])nc1N | . | -0.73
CC(C)Nc1ccc(-n2nc3ccccc3[n+]2[O-])cc1 | -0.4 | 1.9
CCOC(=O)c1cnc2ccc(F)cc2c1NCc1cccnc1 | -1.2 | 15
Cc1ccc(C2(c3ccc(C)cc3)CC2C(=O)Nc2cccc(Cl)c2)cc1 (stereo not given) | . | -0.25
CCCN(C(=O)c1cc2cc3ccc(OC)cc3nc2o1)c1ccc(CC)cc1 | -1.2 | 0.22
COc1ccc(OC)c(-c2n[nH]c(C(=O)O)c2C)c1 | -1 | .
CCOC(=O)c1c(C)oc2c(Br)cc(NS(=O)(=O)c3ccc(CC)cc3)cc12 | . | 0.48
CCS(=O)(=O)Nc1ccc(Cl)cn1 | -1.4 | .
CC(NC(=O)CSc1nnnn1C)c1ccccc1 (stereo not given) | -0.8 | .
CC1(C2CCCCC2)Cc2ccccc2-c2nc(SCC(N)=O)n(Cc3ccccc3)c(=O)c21 (stereo not given) | . | 0.79
CC1(C)CC(=O)C=C(Nc2ccc(N3CCOCC3)cc2)C1 | -0.75 | .
CCOC(=O)CSc1nnc(NC(=O)C2CCCCC2)s1 | -0.05 | 0.76
CC(C)(C)c1ccc(-c2cc(NS(=O)(=O)c3ccccc3)c(C(N)=O)s2)cc1 | 2.1 | 24
CC[C@H]1CN2CCC1C[C@H]2[C@H](O)c1ccnc2ccc(OC)cc12 (stereo not given in full) | . | -0.54
CCOC(=O)c1ccc(CN(Cc2ccccc2C)S(=O)(=O)c2ccc3c(c2)OCCO3)cc1 | 0.55 | 2.6
Cc1cccc(N2CCN(C(=O)c3ccncc3)CC2C)c1 (stereo not given) | 0.2 | .
O=C(c1noc2c1CCCC2)N1CCCCC1 | -0.5 | -1
CCn1cc([N+](=O)[O-])nc1C | . | -1.5
CC1CC(C(F)F)n2nc(C(=O)O)cc2N1 (stereo not given) | -0.85 | -0.045
CCc1ccccc1NC(=O)C(CC)Sc1nc2ccncc2[nH]1 (stereo not given) | -0.65 | -0.76
O=c1oc2ccc(Cl)cc2cc1-c1csc(Nc2ccc(Oc3ccc(Cl)cc3)cc2)n1 | . | 0.88
Clc1ccc(COc2cccc3cccnc23)cn1 | -0.65 | 4.2
Cn1ccnc1SCc1cc(=O)c(OC(=O)c2ccccc2)co1 | -0.3 | .
COc1ccccc1CC(=O)NC(=O)c1ccccc1O | 0.25 | -0.56
CCN(CCc1ccccn1)C(=O)NC(Cc1ccccc1)C(=O)OCc1ccccc1 (stereo not given) | . | 0.15
Cc1ccn2cc(CNC(=O)c3ccccc3)nc2c1 | -0.5 | 1.1
CCCCn1cnc2c(c1=O)c1nc3ccccc3nc1n2CC1CCCO1 (stereo not given) | 0.9 | 58
Cc1ccc2c(CC(=O)N3CCc4ccccc43)coc2c1 | 1.4 | 0.88
O=C(c1cc(Cl)ccc1[N+](=O)[O-])N1CCN(c2ccccc2F)CC1 | . | -0.52
Nc1nnc(SCC(=O)Nc2ccc(F)c(F)c2F)s1 | . | -0.08
O=C(CSc1nc2ccccc2c(=O)n1Cc1ccco1)c1ccccc1 | 0.3 | 0.24
CN1CCN(C(=O)C(C(=O)N2CCN(C)CC2)C23CC4CC(CC(C4)C2)C3)CC1 | 0.6 | .
O=C(O)CC1SC(=O)N(Cc2ccccc2)C1=O (stereo not given) | 0.3 | .
O=C(COc1ncn(-c2ccccc2)n1)N/N=C/c1ccc2c(c1)OCO2 | . | 0.42
O=C(COC(=O)c1ccc(O)cc1)NCc1ccccc1 | -0.35 | -0.69
O=C(Nc1ccc(S(=O)(=O)N2CCCCC2c2cccnc2)cc1)c1ccc([N+](=O)[O-])cc1 (stereo not given) | . | -0.32
CCC(NC(=O)Nc1cc(Cl)c(OC)cc1OC)c1c(-n2cccc2)sc2c1CCN(C)C2 (stereo not given) | -1.1 | -0.37
CN(c1ccc(O)cc1)S(=O)(=O)c1ccc(Cl)c(C(F)(F)F)c1 | -0.1 | .
CCCCC(=O)Nc1ccc(C(=O)N2CCN(C)CC2)cc1 | 1.7 | -0.51
CNC(=O)c1csc(Cc2c(Cl)sc3ccc(Cl)cc23)n1 | -0.25 | 0.2
CNC(=O)NC(=O)C(C)N1CCN(c2ccccc2)CC1 (stereo not given) | -0.35 | .
CCOc1ccccc1NC(=O)C(NCc1ccco1)c1ccccc1 (stereo not given) | 2.5 | .
N#CC1(NC(=O)Cn2cnc3c(Cl)cc(Cl)cc3c2=O)CCCCC1 | -0.65 | .
CCC1(CC)NC(=S)N(c2ccccc2)N1 | . | -0.32
COc1ccc2nc(-c3ccco3)c(-c3ccco3)nc2c1 | -0.7 | 5.8
CC1CCCC(C)N1C(=O)Cn1cc(C(=O)C2CC2)c2ccccc21 (stereo not given) | -0.6 | -0.19
COc1ccc(CCCC(=O)O)cc1 | -0.35 | 0.14
CCC(=O)Nc1cccc(NC(=O)c2cc3ccccc3o2)c1 | -0.65 | -1.4
CCC(C)NC(=O)c1ccc(NC(=O)C2=CSCCO2)cc1 (stereo not given) | -0.2 | 0.14
FC(F)(F)c1cccc(-c2ccc3ccccc3n2)c1 | -0.15 | -0.53
c1ccc(C2C3=C(Nc4ncnn42)c2ccccc2CCC3)cc1 (stereo not given) | 0.8 | 0.73
(list continues)
SMILES | AID504770 | Ba CapD inh
CC1(C)CC(=O)c2sc(NC(=O)CCSc3ccccc3)nc2C1 | -0.35 | 0.66
CCOC(=O)C1=NN(c2ccc(OC)cc2)C(c2ccccc2)CC1=O (stereo not given) | 0.8 | -2.2
O=C(COc1ccc2ccc(=O)oc2c1)N1CCOCC1 | 0.2 | .
CCCc1nc2ccccc2c2c1C(=O)N(Cc1ccc(-c3csnn3)cc1)C2=O | . | 0.01
COc1cc(C2Nc3ccccc3-c3nnc(SC)nc3O2)cc(Br)c1O (stereo not given) | . | -0.89
CC(C)n1c(-c2nonc2N)nc2ccccc21 | -1.2 | -0.11
COc1ccc(OC)c(NC(=O)c2sc3ncn(CC(=O)Nc4cccc(C(F)(F)F)c4)c(=O)c3c2C)c1 | . | -0.41
CCOC(=O)C1CCN(C(=O)c2nn(C)c(=O)c3ccccc23)CC1 | -0.8 | .
CCn1c(=O)n(CC)c2cc(S(=O)(=O)NC3CCCCC3)ccc21 | 2.2 | -0.95
CC(C)(C)OC(=O)N1CC=C2C(C#N)=C(N)C(C#N)(C#N)C(c3ccc(Cl)cc3)C2C1 (stereo not given) | . | 6
O=C(O)c1c[nH]c(=O)cc1O | -0.4 | 0.025
COC(=O)c1ccc(C2C3C(=CC4CCC3N4C)C(C#N)=C(N)C2(C#N)C#N)cc1 (stereo not given) | -0.55 | .
O=c1nc(NCc2ccccc2)ccn1-c1nc(-c2ccccc2)oc1-c1ccccc1 | . | 30
COc1ccc(/C=C2\SC(=Nc3cccc4ccccc34)NC2=O)c(OC)c1 | . | 0.01
CCOC(=O)c1nc(SCC(=O)Nc2cc(Cl)cc(Cl)c2)[nH]c1C | 0.25 | 0.86
CCOC(=O)c1[nH]c(I)c(C(=O)OCC)c1C | 1.4 | -0.31
CCOC(=O)c1sc(NC(=O)C(C)Sc2nnc(CNC(=O)c3ccccc3OC)n2C)c(C(=O)OCC)c1C (stereo not given) | . | 0.23
CC(NC(=O)c1ccco1)C(=O)N(C)Cc1ccc(C(F)(F)F)cc1 (stereo not given) | 0.15 | .
O=C(O)c1cccc(NCc2cccnc2)c1 | -0.3 | 1.8
CN1C(=O)N(C)C2(c3ccccc3)Nn3c(s/c(=C/c4ccccc4Br)c3=O)=NC12c1ccccc1 (stereo not given) | . | 47
CC(=O)C1=NN(c2ccc([N+](=O)[O-])cc2)C2(S1)c1ccccc1C(c1ccc(C(C)C)cc1)=NN2c1ccccc1 (stereo not given) | . | -0.32
CC(C)(C)c1ccc(-c2nnc3s/c(=C\c4ccccc4Cl)c(=O)n23)cc1 | . | 0.04
NC(=O)C1CCN(c2cnc3ccccc3n2)CC1 | -0.8 | 0.24
COc1ccc(-c2cc(C3CCN(Cc4ccc([N+](=O)[O-])cc4)CC3)[nH]n2)cc1 | . | -0.12
CCC(C)(C)c1ccc(S(=O)(=O)NCc2ccc(Cl)cc2Cl)cc1 | . | 0.17
COC(=O)/C=C1\SC(=Nc2ccc(OC)cc2)NC1=O | -0.15 | -0.81
CCC(C)c1ccccc1N=Cc1cccs1 (stereo not given) | 1.3 | -0.82
NC(=O)c1c(NC(=O)CN2C(=O)S/C(=C\c3ccc(F)cc3)C2=O)sc2c1CCCC2 | . | 0.24
Cc1ccc(-c2cc(C(F)(F)F)c3c(=O)[nH]c(N)nc3n2)cc1 | -0.8 | .
CC(C)NS(=O)(=O)c1ccc(N=Cc2c(O)n(C)c(=O)n(C)c2=O)cc1 | -3.7* | .
O=C(NCc1ccc(Cl)cc1)c1ccc2nc[nH]c2c1 | -0.6 | .
COc1ccc(-c2cc(C(=O)N(C)Cc3ccccc3)no2)cc1S(=O)(=O)N1CCOCC1 | 0.25 | -0.11
C(=N\C(/N=C/c1ccccc1)c1ccccc1)/c1ccccc1 | -0.9 | 0.01
COc1ccc(C2=NN(S(=O)(=O)c3ccccc3)C(c3ccc(Br)cc3)C2)cc1 (stereo not given) | . | -0.46
COc1ccc(CCNC(=O)c2csc3c2CCCC3)cc1OC | 0.2 | 0.21
CC(=O)Nc1cccc(NC(=O)c2c[nH]c(=O)n(-c3ccccc3)c2=O)c1 | -0.25 | .
CC(/C(O)=C(\C#N)c1nc2ccccc2s1)N1C(=O)c2ccccc2C1=O (stereo not given) | -0.2 | .
COc1ccc(/C(O)=C(/C#N)c2nc3ccccc3s2)cc1 | -1.2 | i
Cc1ccc(Sc2ccc(NC(=O)c3ccc(Cl)cc3)cc2)cc1 | . | 0.8
O=C(Cn1nnc2ccccc2c1=O)NC1CCCCC1 | -0.3 | .
Cc1cc(C)n(-c2nc3ccccc3nc2N2CCN(S(=O)(=O)c3ccc(F)c(C)c3)CC2)n1 | -0.1 | -0.07
C=CCc1c(C)nc(SC)nc1Nc1ccccc1 | -0.4 | -0.26
CC(NC(=O)c1cccc(S(=O)(=O)N(C)C)c1)c1ccccc1 (stereo not given) | 0.35 | -0.17
CCC(=O)Nc1ccc(-c2nn3c(CC)nnc3s2)cc1 | 1.2 | .
CCCC(CCC)=NNc1ncnc2sc(C)c(C)c12 | -0.05 | .
CCOC(=O)NC(Nc1ccccn1)(C(=O)OCC)C(F)(F)F (stereo not given) | . | -0.29
N#CC1=C(N)n2c(s/c(=C\c3ccc(F)cc3)c2=O)=C(C#N)C1c1ccc(F)cc1 (stereo not given) | . | -0.01
COC(=O)c1ccc(NC(=O)CSC2=NC(c3ccccc3)CC(=O)N2)cc1 (stereo not given) | 2.1 | -0.17
COc1ccc(/C=N/c2nc3ccccc3[nH]2)cc1 | . | -0.56
Cc1ccc(NC(=O)c2cccn(Cc3ccc(C(F)(F)F)cc3)c2=O)cc1 | . | -0.19
